Bead autofluor – flagged as autofluorescent in microsphere protease counterscreen; fluorescence intensity (concentration not given with the values); compound autofluorescence counterscreen, microsphere flow cytometry; stronger effect = higher value; actives 3.1% (n = 360,000);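 active = at least 3 SD above the mean of all compounds, about 16000 in these data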;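 also: 100 nL of 1 mM stock went into each well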
Sa RN4220 lethal – S. aureus RN4220 growth inhibition; OD600, 16 h; inhibition, % (test concentration not listed); actives 0.33% (n = 330,000); AID 1259311;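 active = z-score of -3 or lower and OD600 up to 0.18 on both plates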;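 also: plate controls were untreated cells for no effect and reference antibiotic for full effect; stock transfer was 100 nL into about 80 µL; one replicate is shown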
BJeLR lethal – kills HRASV12-expressing BJeLR cells; AID 1554; actives 0.17% (n = 300,000); BJeLR (HRASV12) viability, CellTiter-Glo ATP luminescence, 48 h; reference of the scale not given here; inhibition, % (test concentration not listed);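 active = replicate mean above 50%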;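 also: 50 nL library stock added to about 25 µL; numbers are from one replicate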
Mtb hypoxia inh – reduces hypoxia-regulated biosensor signal in M. tuberculosis | actives 0.1% (n = 300,000) | M. tuberculosis hypoxia-regulated fluorescent reporter, fluorescence | fluorescence inhibition, % (no concentration beside the values) | AID 1159583;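 active = 35 to 45% if threefold the growth effect, above 45% if 1.5-fold the growth effect; inactive = the rest, general growth blockers included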;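 also: wells of about 50 µL received 100 nL stock; 0% = vehicle wells and 100% = reference inhibitor wells; whole bacteria with a GFP reporter of the hypoxia response; strong numbers were not always called active; many hits fall short of the cut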
PrP 5UTR inh – suppresses PrP 5' UTR mRNA reporter expression; cell-based PrP 5' UTR mRNA reporter, plate reader; inhibition, % (test concentration not listed); actives 0.35% (n = 340,000); AID 488862;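 active = every replicate at 50% or more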;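 also: 0 = median of the neutral control wells; tested in H4 reporter cells; numbers are from one replicate; inactives centre near -14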
Sa ugtP lethal – kills S. aureus RN4220 lacking UgtP | S. aureus RN4220 ugtP deletion, OD600 growth, 16 h; some inactives read as strong as hits | growth inhibition, % (concentration not given with the values) | actives 0.54% (n = 330,000) | AID 1259309;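 active = z-score under -3 and OD600 up to 0.15 on both plates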;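 also: plate controls were untreated wells for no effect and antibiotic for full effect; wells of about 80 µL received 100 nL stock; the first replicate is given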
Mtb hypoxia inh growth – recorded beside Mtb hypoxia inh, whose call it bears; growth inhibition, %; measured here: M. tuberculosis growth (absorbance);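 0% = vehicle and 100% = reference antibiotic; read after six days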
* marks the source's active call; other numbers are inactive results. Rows are unselected; overall some 4% were active at least once.

A first look (two entries):
Results for Cc1nc2ccc(Br)cn2c1C(=O)N/N=C\c1ccc(C(C)C)cc1 ?
Bead autofluor: 3988; BJeLR lethal: 5; PrP 5UTR inh: -42

What do the screens show for `C/C(CC(=O)NCc1ccccc1)=N\NC(=O)c1cnccn1`?
Bead autofluor: 2459; BJeLR lethal: 0; PrP 5UTR inh: 1

All compounds of this part (from the top)
Results for Cc1nc2ccc(Br)cn2c1C(=O)N/N=C\c1ccc(C(C)C)cc1 ?
Bead autofluor: 3988; BJeLR lethal: 5; PrP 5UTR inh: -42

What do the screens show for `C/C(CC(=O)NCc1ccccc1)=N\NC(=O)c1cnccn1`?
Bead autofluor: 2459; BJeLR lethal: 0; PrP 5UTR inh: 1

How did Cc1c(C(=O)C(=O)N2CCN(Cc3ccc4c(c3)OCO4)CC2)c2ccccc2n1C do in these assays?
Bead autofluor: 4857; Sa RN4220 lethal: 1.6; BJeLR lethal: 1; Mtb hypoxia inh: 10; PrP 5UTR inh: -7; Sa ugtP lethal: 3; Mtb hypoxia inh growth: 3

Results for CCS(=O)(=O)n1nc(NCc2cccc(OC)c2)nc1NCc1cccc(OC)c1 ?
Bead autofluor: 4398; Sa RN4220 lethal: 1.0; BJeLR lethal: 2; PrP 5UTR inh: -36; Sa ugtP lethal: 11

Results for COc1ccc(OCC(=O)Nc2cc(NC(=O)c3ccco3)ccc2OC)cc1 ?
Bead autofluor: 3552; Sa RN4220 lethal: 2.1; BJeLR lethal: 12; Mtb hypoxia inh: 8; PrP 5UTR inh: -16; Sa ugtP lethal: -2; Mtb hypoxia inh growth: 2

What do the screens show for `O=C(CC(Nc1ccc(F)cc1)C(=O)O)c1ccccc1` (stereo unspecified)?
Bead autofluor: 9843; Sa RN4220 lethal: 2.5; BJeLR lethal: -3; Mtb hypoxia inh: -98; PrP 5UTR inh: -18; Sa ugtP lethal: -1; Mtb hypoxia inh growth: -25

Results for O=C1C2C(c3ccccc3)CC=CC2[C@H](c2ccc3ccccc3c2)N1Cc1ccccc1 (stereo partly specified) ?
Bead autofluor: 3020; BJeLR lethal: 13; PrP 5UTR inh: -11

How did O=C(CSc1nc2ccccc2o1)N/N=C/c1ccccc1 do in these assays?
Bead autofluor: 2376; BJeLR lethal: -3; PrP 5UTR inh: -9

How did CCN1C(=O)C2C(c3ccc(SC4CCCCC4)cc3)N3CCC[C@@]3(C(=O)OC)C2C1=O (stereo partly specified) do in these assays?
Sa RN4220 lethal: 3.4; Mtb hypoxia inh: 7; Sa ugtP lethal: -8; Mtb hypoxia inh growth: 13

Results for COC(=O)C(NCc1cccc(CN(C(C(=O)OC)C(C)C)S(C)(=O)=O)c1)C(C)C (stereo unspecified) ?
Sa RN4220 lethal: 8.0; Mtb hypoxia inh: 6; Sa ugtP lethal: 6; Mtb hypoxia inh growth: 2

What do the screens show for `Cc1nnc(SCC(=O)NCc2ccccc2)s1`?
Bead autofluor: 2625; Sa RN4220 lethal: -2.3; BJeLR lethal: 6; PrP 5UTR inh: -14; Sa ugtP lethal: -5

How did COc1ccc(CNS(=O)(=O)c2cc3c4c(c2)C(C)C(=O)N4CCC3)cc1 (stereo unspecified) do in these assays?
Bead autofluor: 5077; Sa RN4220 lethal: 3.8; BJeLR lethal: 8; Mtb hypoxia inh: -2; PrP 5UTR inh: -27; Sa ugtP lethal: -1; Mtb hypoxia inh growth: -2

Results for CCOC(=O)c1cnc2c(c(C)nn2C)c1Oc1ccc(OC)cc1 ?
Bead autofluor: 3743; Sa RN4220 lethal: 5.7; BJeLR lethal: -3; Mtb hypoxia inh: 5; Sa ugtP lethal: 10; Mtb hypoxia inh growth: 16

What do the screens show for `CN(C)S(=O)(=O)c1ccc(NCC2COc3ccccc3O2)c([N+](=O)[O-])c1` (stereo unspecified)?
Bead autofluor: 2448; Sa RN4220 lethal: 3.5; BJeLR lethal: 14; Mtb hypoxia inh: 0; PrP 5UTR inh: -17; Sa ugtP lethal: 14; Mtb hypoxia inh growth: 4

Results for NC(=O)c1ccc(Nc2nnc(-c3ccc(O)cc3)c3ccccc23)cc1 ?
Bead autofluor: 3346; Sa RN4220 lethal: 5.1; BJeLR lethal: 2; Mtb hypoxia inh: -3; PrP 5UTR inh: -26; Sa ugtP lethal: 4; Mtb hypoxia inh growth: -2

How did COc1ccc(N2C(=O)CC(N3CCN(c4nc5ccccc5s4)CC3)C2=O)cc1 (stereo unspecified) do in these assays?
Bead autofluor: 9254; Sa RN4220 lethal: 4.0; BJeLR lethal: 3; Mtb hypoxia inh: 2; PrP 5UTR inh: -31; Sa ugtP lethal: 9; Mtb hypoxia inh growth: 3

Results for O=C(Cc1ccc(-n2cnnn2)cc1)NC12CC3CC(CC(C3)C1)C2 ?
Bead autofluor: 3334; Sa RN4220 lethal: -11; BJeLR lethal: 4; Mtb hypoxia inh: 15; PrP 5UTR inh: -5; Sa ugtP lethal: -5; Mtb hypoxia inh growth: 6

How did Cc1ccc(-n2c(O)c(/C=N/N3CCOCC3)c(=O)[nH]c2=S)cc1 do in these assays?
Bead autofluor: 1905; Sa RN4220 lethal: 3.9; BJeLR lethal: 1; Mtb hypoxia inh: 4; PrP 5UTR inh: -15; Sa ugtP lethal: 5; Mtb hypoxia inh growth: 7

Results for CCOc1ccc(NC(=O)CCSc2nnc(C)s2)cc1 ?
Bead autofluor: 5060; Sa RN4220 lethal: 1.7; BJeLR lethal: 1; PrP 5UTR inh: -7; Sa ugtP lethal: 4

How did O=C(CN1CCOCC1)N(c1ccccc1)c1ccc2ccccc2c1 do in these assays?
Bead autofluor: 9829; Sa RN4220 lethal: 4.6; BJeLR lethal: -3; Mtb hypoxia inh: 8; PrP 5UTR inh: -14; Sa ugtP lethal: 2; Mtb hypoxia inh growth: 13

How did COc1ccc(C(=O)NC(=S)N(Cc2ccccc2)Cc2ccccc2)cc1 do in these assays?
Bead autofluor: 16570*; Sa RN4220 lethal: 14; BJeLR lethal: -1; Mtb hypoxia inh: 3; PrP 5UTR inh: -1; Sa ugtP lethal: 22; Mtb hypoxia inh growth: -5

How did Cc1cc(/C=N/n2cnnc2)c(C)n1-c1ccc(C(=O)O)cc1 do in these assays?
Bead autofluor: 23182*; BJeLR lethal: -7; PrP 5UTR inh: -6

Results for COc1ccc(OC)c(N(CC(=O)NC2CCCC2)S(=O)(=O)c2ccc(OC)c(OC)c2)c1 ?
Bead autofluor: 6698; Sa RN4220 lethal: -0.8; BJeLR lethal: -2; Mtb hypoxia inh: -18; PrP 5UTR inh: -6; Sa ugtP lethal: -5; Mtb hypoxia inh growth: 0

How did O=c1[nH]nc(Cc2ncc(C(F)(F)F)cc2Cl)c2ccccc12 do in these assays?
Bead autofluor: 3862; Sa RN4220 lethal: 1.5; BJeLR lethal: 8; Mtb hypoxia inh: -3; PrP 5UTR inh: -2; Sa ugtP lethal: 6; Mtb hypoxia inh growth: -3

How did O=C(CCCN1C(=O)/C(=C\c2ccccc2)SC1=S)N1CCOCC1 do in these assays?
Bead autofluor: 3856; Sa RN4220 lethal: 1.9; Mtb hypoxia inh: 15; PrP 5UTR inh: -26; Sa ugtP lethal: 1; Mtb hypoxia inh growth: 5

Results for O=C(CN1CCCCCC1)NN=Cc1cccs1 ?
Sa RN4220 lethal: 9.9; Mtb hypoxia inh: 7; Sa ugtP lethal: 9; Mtb hypoxia inh growth: 1

How did O=C(CSc1nncs1)Nc1ccc(N2CCCCC2)cc1 do in these assays?
Bead autofluor: 3546; Sa RN4220 lethal: 5.8; Mtb hypoxia inh: 6; PrP 5UTR inh: -20; Sa ugtP lethal: 8; Mtb hypoxia inh growth: 9

What do the screens show for `CC(=NN=c1sc2ccccc2n1C)c1ccccn1`?
Sa RN4220 lethal: 9.3; Mtb hypoxia inh: -3; Sa ugtP lethal: 3; Mtb hypoxia inh growth: -1

Results for CCc1nc(SCC(=O)NCc2ccc(F)cc2)c2c(=O)n(C)c(=O)n(C)c2n1 ?
Bead autofluor: 6746; Sa RN4220 lethal: 4.3; BJeLR lethal: 6; Mtb hypoxia inh: -4; PrP 5UTR inh: -31; Sa ugtP lethal: 7; Mtb hypoxia inh growth: -2

How did Cc1cc(C)cc(C(=O)NCC(=O)NNC(=O)CSc2ccccc2F)c1 do in these assays?
Bead autofluor: 3087; Sa RN4220 lethal: -2.5; Mtb hypoxia inh: 8; PrP 5UTR inh: -11; Sa ugtP lethal: 13; Mtb hypoxia inh growth: -1

Results for COc1ccc(OC)c(S(=O)(=O)CC(=O)c2cc3ccc(OC)cc3oc2=O)c1 ?
Bead autofluor: 5618; Sa RN4220 lethal: 0.2; BJeLR lethal: 7; Mtb hypoxia inh: 7; PrP 5UTR inh: -11; Sa ugtP lethal: -3; Mtb hypoxia inh growth: 13

Results for COCCNC(=O)c1cc(OC)c(OC)cc1[N+](=O)[O-] ?
Bead autofluor: 2518; Sa RN4220 lethal: 6.6; BJeLR lethal: -2; Mtb hypoxia inh: 17; PrP 5UTR inh: -18; Sa ugtP lethal: -2; Mtb hypoxia inh growth: 6

How did O=C(NN=Cc1cccc(Oc2ccccc2)c1)c1cc[n+]([O-])cc1 do in these assays?
Sa RN4220 lethal: 0.2; Mtb hypoxia inh: -4; Sa ugtP lethal: -3; Mtb hypoxia inh growth: 3

Results for O=C(Cn1c(C(F)(F)F)nc2ccccc21)N=Nc1c(O)[nH]c2ccc(Br)cc12 ?
Bead autofluor: 2426; Sa RN4220 lethal: 15; BJeLR lethal: -9; Mtb hypoxia inh: 13; PrP 5UTR inh: -20; Sa ugtP lethal: 0; Mtb hypoxia inh growth: 2

Results for Cc1nc(NC(=O)CSc2nnnn2Cc2ccccc2)sc1C ?
Bead autofluor: 4781; Sa RN4220 lethal: 11; BJeLR lethal: 20; PrP 5UTR inh: -10; Sa ugtP lethal: 6

What do the screens show for `Cc1ccc(S(=O)(=O)Oc2ccc(/C=C(/NC(=O)c3ccccc3)C(=O)NC(C)C(=O)O)cc2)cc1` (stereo unspecified)?
Bead autofluor: 4265; Sa RN4220 lethal: 9.4; BJeLR lethal: 1; Mtb hypoxia inh: -2; PrP 5UTR inh: -5; Sa ugtP lethal: 17; Mtb hypoxia inh growth: 3

What do the screens show for `CCC(=O)N1CC2(CC(c3cccc([N+](=O)[O-])c3)=NO2)CC1C(=O)NCC(N)=O` (stereo unspecified)?
Sa RN4220 lethal: 7.8; Mtb hypoxia inh: 11; Sa ugtP lethal: -1; Mtb hypoxia inh growth: 7

Results for O=P(c1ccccc1)(c1ccccc1)c1cc(S(=O)(=O)O)ccc1O ?
Bead autofluor: 3454; Sa RN4220 lethal: 3.6; BJeLR lethal: -5; Mtb hypoxia inh: -3; PrP 5UTR inh: -17; Sa ugtP lethal: 4; Mtb hypoxia inh growth: 4

What do the screens show for `Nc1nonc1C(=O)NCCNC(=O)c1ccc(Cl)cc1`?
Bead autofluor: 3856; Sa RN4220 lethal: 5.0; BJeLR lethal: -4; Mtb hypoxia inh: -11; PrP 5UTR inh: -29; Sa ugtP lethal: 10; Mtb hypoxia inh growth: -9

Results for CCOCCCNC(=O)C(NC(=O)c1ccc2c(c1)OCO2)c1ccccc1 (stereo unspecified) ?
Bead autofluor: 3651; Sa RN4220 lethal: 2.7; BJeLR lethal: 7; Mtb hypoxia inh: 10; PrP 5UTR inh: -17; Sa ugtP lethal: 11; Mtb hypoxia inh growth: 5

How did CC1=CC2=NC(=O)CC(C)(C(=O)N(CC(=O)NC(C)(C)C)C3CCCC3)N2C=C1 (stereo unspecified) do in these assays?
Bead autofluor: 11436; Sa RN4220 lethal: 6.2; BJeLR lethal: 11; Mtb hypoxia inh: 8; PrP 5UTR inh: -23; Sa ugtP lethal: 3; Mtb hypoxia inh growth: 10

Results for CC(=O)c1c(C)[nH]c(C(=O)CSc2nnc(-c3ccc(Cl)cc3)n2CC2CCCO2)c1C (stereo unspecified) ?
Bead autofluor: 2276; Sa RN4220 lethal: 2.8; BJeLR lethal: 3; PrP 5UTR inh: 11; Sa ugtP lethal: -8

Results for Cn1nnc2sc3c(c2c1=O)CCCC3 ?
Bead autofluor: 23005*; Sa RN4220 lethal: -0.6; BJeLR lethal: 2; Mtb hypoxia inh: 4; PrP 5UTR inh: -1; Sa ugtP lethal: -3; Mtb hypoxia inh growth: 11

Screens: PubChem BioAssay, several laboratories
